Rce1 inhib – yeast Rce1p protease inhibitors, primary screen, biochemical, fluorescence, cell-free homogeneous; AID 2563, 2010; yeast membranes, quenched prenylated peptide cleavage fluorescence; calls only; CAAX prenyl protease 2 (Saccharomyces cerevisiae (strain ATCC 204508 / S288c)), Q03530; 0.27% of 290,000 active;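 active = fall in fluorescence gain of 50% or more versus controls, with final raw signal at or below 3038400; inconclusive = same 50% fall but final raw signal above 3038400; inactive = fall in fluorescence gain under 50%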;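 note: plate controls were neutral control wells for no effect and wells lacking membranes for full effect; tested at 10 µM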
Target sequence (Q03530 whole entry, looked up): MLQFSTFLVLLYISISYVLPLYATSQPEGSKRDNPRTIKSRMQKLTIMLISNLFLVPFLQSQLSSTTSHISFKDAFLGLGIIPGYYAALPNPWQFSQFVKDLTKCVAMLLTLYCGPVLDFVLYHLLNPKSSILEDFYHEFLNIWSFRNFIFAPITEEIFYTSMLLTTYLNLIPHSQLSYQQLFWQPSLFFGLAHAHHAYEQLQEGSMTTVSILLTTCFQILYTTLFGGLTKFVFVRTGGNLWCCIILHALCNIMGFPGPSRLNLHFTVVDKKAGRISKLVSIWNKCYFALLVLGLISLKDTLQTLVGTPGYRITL
MT1-MMP act inh – blockers of MT1-MMP proenzyme processing, primary screen, HT1080 RFP-PRO-GFP cells, GFP/RFP fluorescence; GFP/RFP ratio change, % at 20 µM; 0.061% of 360,000 active; GFP/RFP ratio fluorescence, overnight; percent of plate control window, DMSO zero;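 active = GFP/RFP ratio change of at least 30% with cell ATP level not reduced by more than half and red fluorescence within 50% of control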; note: strong numbers were not always called active
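system = RFP-PRO-GFP reporter HT1080 cells | dosing = 20 µM single dose, 1% DMSO | timing = overnight cell settling, then overnight compound exposure, 37 °C, 5% CO2 | read-out basis = GFP/RFP fluorescence ratio | controls = DMSO and RFP-L50D-GFP cell wells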
Yeast UUG start – modulators of yeast start codon fidelity, primary screen, whole organism, S. cerevisiae, single point, plate reader; S. cerevisiae UUG-firefly luciferase reporter, luminescence/redox ratio; activity score, % at 18.7 µM; 0.13% of 350,000 active;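 active = replicate mean at a twofold rise or more, about +100% in these data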;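 note: firefly luciferase made from a UUG start codon reports start codon fidelity; reporter light over untreated wells divided by growth signal over untreated wells; some hits fall short of that in this replicate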
eIF4H FP inh – human eIF4H binding inhibitors, primary screen, translation initiation inhibitor project, biochemical, uHTS, fluorescence polarization; Eukaryotic translation initiation factor 4H (Homo sapiens), Q15056; eIF4H fluorescence polarization binding assay; inhibition, % at 35 µM; 0.94% of 290,000 active;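 active = 50% or more with normal probe brightness, or confirmed in later tests; inconclusive = above 50% with abnormal brightness, or retests that disagree; inactive = below 50% or failed in later tests; about a fifth of its hits are not listed in these tables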;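 note: calls also rest on retests at 20 µM and on dose response follow-up; 0% = protein and probe with vehicle and 100% = probe without protein; strong numbers were not always called active; many hits fall short of the cut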
CSC inhib – cancer stem cell viability inhibitors, primary screen, luminescence. inhibition, % at 7.5 µM. cancer stem cell-like cells viability. 1.1% of 300,000 active;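 active = mean at 75% or more and at least half the replicates too; inconclusive = mean and replicates disagree; tested in HMLE shEcad cells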;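 note: 0% = median of negative and 100% = median of positive control wells; the first replicate is given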
PABP FP inh – PABP poly(A) RNA binding inhibitors, primary screen, biochemical, fluorescence polarization, uHTS | Polyadenylate-binding protein 1 (Homo sapiens), P11940 | inhibition, % at 35 µM | 1% of 290,000 active;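 active = 50% or more with normal probe brightness, or confirmed in later tests; inconclusive = above 50% with abnormal brightness, or retests that disagree; inactive = below 50% or failed in later tests; about a fifth of its hits are not listed in these tables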;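 note: calls also rest on retests at 20 µM and on dose response follow-up; controls were probe without protein and protein plus probe with vehicle; some compounds called inactive have numbers as strong as hits; many hits fall short of the cut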
Env fusion inh – inhibitors of HIV-1 Env-driven cell-cell fusion, primary screen, HeLa-JRFL effector, CEM21 target cells, luciferase | inhibition, % at 12.3 µM | 1.1% of 360,000 active | AID 651610, 2012;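 active = mean replicate inhibition score of at least 50 and every replicate individually at or above 50; inconclusive = only one of the two criteria met; inactive = mean below 50 and not all replicates reaching 50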;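 note: 0% = plate neutral controls and 100% = maraviroc near 300 nM; one replicate is shown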
MT1-MMP act inh RFP – also measured in MT1-MMP act inh; calls as there; RFP signal change, %; measured here: RFP expression control read;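 0 = vehicle wells; hits needed this value within 50% of zero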
* marks the source's active call; other numbers are inactive results; i = inactive; ? = inconclusive; . = not tested or not shown; & = joins results of further samples; [ ] = dose if it differs, or a comment. The list is partial, so the mix of outcomes need not match the whole.

molecule	Env fusion inh	MT1-MMP act inh	eIF4H FP inh	Yeast UUG start	MT1-MMP act inh RFP	Rce1 inhib	CSC inhib	PABP FP inh
COc1cccc(CN2CC(C(=O)NCc3cccc(Cl)c3)CCC2=O)c1 (centres undefined)	-4	5	-6	-2	5	i	.	-1
CCn1c(-c2ccccc2Cl)nn(CC(=O)Nc2ccccc2OC)c1=S	.	5	-1	-8	3	i	0	-2
CC1=C(C(=O)OCC2CCCO2)C(c2cccc(O)c2)NC(=O)N1 (centres undefined)	.	2	5	-13	5	i	-13	4
COc1cccc(CC(=NO)c2cccc(OC)c2)c1	-39	-4	.	5	-3	.	.	.
CCOC(=O)C1CCCN(C(=O)c2ccccc2OC(F)(F)F)CC1 (centres undefined)	10	3	.	3	4	.	.	.
O=C(COc1c(Br)cc(Br)c2cccnc12)N1CCc2ccccc2C1	.	7	11	-15	-1	i	5	7
COCCCNC(=O)/C(C#N)=C/c1ccc(F)cc1	8	1	7	.	2	i	2	4
CCCn1c(=O)c(C(=O)NCCc2ccc(OC)c(OC)c2)c(O)c2ccccc21	11	2	-7	12	4	i	24	4
O=[N+]([O-])c1cc(S(=O)(=O)N2CCOCC2)ccc1OCc1ccccc1C(F)(F)F	1	2	.	-8	-1	.	.	.
CCC1=C(c2ccc(C)cc2)S(=O)(=O)N=C1N1CCC(C(=O)NCCCN2CCCCC2C)CC1 (centres undefined)	3	-4	-17	2	1	i	-5	3
CCC(C)(C)n1nnnc1C(c1ccc(O)c(OC)c1)N1CCc2ccccc2C1 (centres undefined)	-15	3	-2	2	2	i	-5	5
CCC(=O)N/C(=N/c1nc(C)cc(C)n1)Nc1cccc(OC)c1	.	5	0	-11	0	i	-10	4
O=C(COc1ccccc1Cc1ccccc1)Nc1cccc(S(=O)(=O)N2CCOCC2)c1	19	2	.	-9	-13	.	.	.
CC(=O)Nc1ccc(NC(=O)c2ccc(S(=O)(=O)N3CCCCCC3)cc2)cc1	-53	1	.	-16	4	.	.	.
COc1cc(/C=C2\N=C(c3c(-c4ccccc4)noc3C)OC2=O)ccc1OC(C)=O	3	-2	8	.	4	i	.	-3

The listing continues:
molecule	Env fusion inh	MT1-MMP act inh	eIF4H FP inh	Yeast UUG start	MT1-MMP act inh RFP	Rce1 inhib	CSC inhib	PABP FP inh
CCCN(CC(=O)Nc1ccccc1OC)C(=O)c1ccncc1	5	1	-4	.	1	i	.	3
CCOc1ccccc1NC(=O)Nc1ccc(CC#N)cc1	-3	-1	-6	.	-10	i	3	-1
CC1(C)CN(c2ccccc2)N(Cc2ccc(F)cc2)C1=O	24	-3	-4	-4	-2	i	-9	8
COc1ccc(NC(=O)CN(C)C2CCS(=O)(=O)C2)cc1 (centres undefined)	-10	-3	.	-18	3	.	-10	.
COc1cc(NC(c2ccccc2)c2ccccc2)cc(OC)c1OC	-1	2	1	.	-1	i	.	-18
COc1ccc([C@H]2CC(=O)C=C(c3c(C)cc(C)cc3C)C2)cc1	?	-2	.	1	-5	.	19	.
O=C(Nc1sc2c(c1C(=O)O)CCCCC2)c1cccs1	-33	-3	-4	.	-3	i	27	-1
COc1ccc(NC(=O)CSc2nnc3ccc(-c4ccncc4)nn23)cc1	8	-5	.	.	-6	i	3	.
CC(=O)Nc1ccc(OCC(=O)NCc2ccc(C)cc2)cc1	4	1	-4	-19	3	i	-4	-3
O=C(NC1CC1)c1cc(OCC(F)(F)F)ccc1OCC(F)(F)F	17	-4	-10	.	6	i	0	-14
COc1cc(CNCCO)cc(Cl)c1OCc1ccc(Cl)cc1Cl	-10	-5	-8	.	-5	i	7	3
Cc1ccsc1C(=O)OCC(=O)NCc1ccccc1	-10	0	.	.	0	.	5	.
CCOc1cc(Br)c(Br)c(C=Nc2ccc(NC(C)=O)cc2)c1O	17	5	17	.	6	i	-1	6
COc1cccc(OC)c1C(=O)NC(=S)N1CCOCC1	-2	4	-2	.	3	i	11	-8
Cc1csc(Nc2ccccc2)n1	-25	-3	-3	.	2	i	-9	6

Part of the list above, limited to Yeast UUG start and Rce1 inhib.
| SMILES | Yeast UUG start | Rce1 inhib |
| --- | --- | --- |
| COc1cccc(OC)c1C(=O)NC(=S)N1CCOCC1 | . | i |
| Cc1csc(Nc2ccccc2)n1 | . | i |

Next part
molecule	Env fusion inh	MT1-MMP act inh	eIF4H FP inh	Yeast UUG start	MT1-MMP act inh RFP	Rce1 inhib	CSC inhib	PABP FP inh
COc1ccc(N2CS(=O)(=O)/C(=C/N(C)C)C2=O)cc1	-81	-1	10	9	0	i	-7	7
CC[C@@]1(C(=O)OC)N[C@H](CN(C)C(=O)COC)[C@@H]2C(=O)N(Cc3ccccc3)C(=O)[C@@H]21	8	2	.	-8	6	.	.	.
OCCC1CN(Cc2cccc(F)c2F)CCN1CCc1ccccc1 (centres undefined)	7	0	2	-9	2	i	-1	7
CN1C=CC2=C(C#N)C(N)C(C#N)(C#N)[C@H](c3ccccc3)[C@H]2C1 (some centres undefined)	26	-152	?	-15	6	i	-6	14
CCc1noc(C)c1C(=O)N1CCN(S(=O)(=O)c2ccc(C)cc2)CC1	4	-6	.	-10	1	i	3	.
C=Cc1ccc(N=Cc2c(O)ccc3ccccc23)cc1	12	4	29	-3	4	i	2	16
COc1ccc(S(=O)(=O)N2CCN(CC(=O)N3CCc4ccccc4C3)CC2)cc1OC	.	-4	.	4	0	.	-20	.
CCN(Cc1nc(-c2ccccc2)no1)C(=O)c1ccoc1C	-8	-1	-9	-9	1	i	-12	-2
CCC1(c2ccccc2)NC(=O)N(CC(=O)Nc2ccc(Cl)c(S(=O)(=O)N3CCCCC3)c2)C1=O (centres undefined)	-30	6	.	13	-1	i	-11	.
O=C(c1cc(=O)c2ccccc2o1)N(Cc1ccccc1)C1CCS(=O)(=O)C1 (centres undefined)	-6	3	-3	-9	4	i	.	2
Cc1ccc(CNC(=O)c2cnc3ccccc3n2)cc1	27	-4	-6	-25	-4	i	-6	6
Cc1ccc(S(=O)(=O)N2C/C=C\CN(S(=O)(=O)c3ccccc3Br)CC2)cc1	-1	-3	.	3	-17	.	.	.
Cc1ccc(S(=O)(=O)N(C)c2cc(S(=O)(=O)N3CCOCC3)c(C)cc2C)cc1	16	2	-11	-3	1	i	-9	6
O=C1CCC[C@H]2c3[nH]c4ccccc4c3CCN12	.	0	.	-13	2	i	8	.
O=C(NNS(=O)(=O)c1ccccc1)c1ccccc1-n1cccc1	15	-2	-13	-8	2	i	-5	2

(cont.)
molecule	Env fusion inh	MT1-MMP act inh	eIF4H FP inh	Yeast UUG start	MT1-MMP act inh RFP	Rce1 inhib	CSC inhib	PABP FP inh
O=C(OCCCc1cc2ccccc2c(=O)o1)c1ccccc1C(F)(F)F	-13	-1	.	-8	3	.	-1	.
CCC(C)N(C(=O)CSc1nnnn1-c1ccccc1OC)C1CCS(=O)(=O)C1 (centres undefined)	i	1	.	-3	-1	.	.	.
CS(=O)(=O)N1CCC(C(=O)N2CCN(Cc3ccccc3)CC2)CC1	14	1	0	.	3	i	4	-1
O=C(C1=C[C@H](c2ccc3c(c2)OCO3)C[C@H](OCc2ccc(CO)cc2)O1)N1CCN(Cc2ccc3c(c2)OCO3)CC1	5[16.7 µM]	-2	-1	-4&2&1	-8	i	13	-4
CC(C(=O)O)c1ccc2c(c1)[nH]c1ccc(Cl)cc12 (centres undefined)	0	2	0	-11	-1	i	3	-5
Cc1ccc(C)c(N2CCN(C(=O)CCS(=O)(=O)c3cccc4nonc34)CC2)c1	-4	7	-4	-9	4	i	0	6
COc1ccc(NC(=S)NC23CN4CN(CN(C4)C2)C3)cc1	-18	2	3	-4	3	i	-1	5
COc1ccc(C2C(C(=O)NCC3CCCO3)c3cc(OC)c(OC)cc3C(=O)N2C)cc1OC (centres undefined)	7	-3	-4	1	-5	i	-14	16
COc1ccc(CN2CCC[C@]3(N[C@H](c4ccc(C)cc4)[C@@H]4C(=O)N(Cc5ccccc5)C(=O)[C@@H]43)C2=O)cc1	-165	0	.	34	1	.	.	.
O=C(CSc1ccc(-c2ccccc2)nn1)c1ccccc1	9	-4	7	-10	-6	i	32	11
CC(C)c1nc(C#N)c(NN)o1	-14	1	7	-26	4	i	-7	0
Cn1c(=O)n(C)c2cc(NS(=O)(=O)c3cccs3)ccc21	4	12	10	-4	4	i	5	22
CCc1ccccc1NC(=O)c1ccoc1C	-52	-2	0	-11	3	i	-3	6
COc1ccc(CNC(NC(=O)c2ccccc2)(C(F)(F)F)C(F)(F)F)cc1	17	0	1	.	0	i	5	12
O=C(CCc1ccc(S(=O)(=O)N2CCCCC2)cc1)c1nnc(-c2ccccc2)o1	.	0	-16	-11	-1	i	-3	-6
CCOc1cc(C2C3=C(CCCC3=O)NC3=C2C(=O)CCC3)cc(Cl)c1O	2	-2	2	-26	-6	i	-13	-4
c1ccc(Nc2ncnc3[nH]ncc23)cc1	6	-5	-9	-26	-3	i	-1	11

5 entries picked at random from the list so far, as already listed:
molecule	Env fusion inh	MT1-MMP act inh	eIF4H FP inh	Yeast UUG start	MT1-MMP act inh RFP	Rce1 inhib	CSC inhib	PABP FP inh
c1ccc(Nc2ncnc3[nH]ncc23)cc1	6	-5	-9	-26	-3	i	-1	11
O=C(CCc1ccc(S(=O)(=O)N2CCCCC2)cc1)c1nnc(-c2ccccc2)o1	.	0	-16	-11	-1	i	-3	-6
O=C(C1=C[C@H](c2ccc3c(c2)OCO3)C[C@H](OCc2ccc(CO)cc2)O1)N1CCN(Cc2ccc3c(c2)OCO3)CC1	5[16.7 µM]	-2	-1	-4&2&1	-8	i	13	-4
Cn1c(=O)n(C)c2cc(NS(=O)(=O)c3cccs3)ccc21	4	12	10	-4	4	i	5	22
Cc1ccc(C)c(N2CCN(C(=O)CCS(=O)(=O)c3cccc4nonc34)CC2)c1	-4	7	-4	-9	4	i	0	6

Screens from PubChem.
